GLA inh pH 4.5 – inhibitors of human alpha-galactosidase A at pH 4.5; P06280; purified enzyme, 4-MU-alpha-Gal fluorescence, pH 4.5; activity change, negative = inhibition, % at 105 µM; 230,000 tested, under 10 active; AID 1467; inconclusive = small, poorly fitted or top-dose-only inhibition, or a rising curve; inactive = flat fitted curve, though single readings scatter; no compound was filed as active;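 note: 0% = full activity with enzyme and -100% = basal without enzyme; dose as in the result columns while the protocol names 77 µM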
Target sequence (P06280 whole entry, looked up): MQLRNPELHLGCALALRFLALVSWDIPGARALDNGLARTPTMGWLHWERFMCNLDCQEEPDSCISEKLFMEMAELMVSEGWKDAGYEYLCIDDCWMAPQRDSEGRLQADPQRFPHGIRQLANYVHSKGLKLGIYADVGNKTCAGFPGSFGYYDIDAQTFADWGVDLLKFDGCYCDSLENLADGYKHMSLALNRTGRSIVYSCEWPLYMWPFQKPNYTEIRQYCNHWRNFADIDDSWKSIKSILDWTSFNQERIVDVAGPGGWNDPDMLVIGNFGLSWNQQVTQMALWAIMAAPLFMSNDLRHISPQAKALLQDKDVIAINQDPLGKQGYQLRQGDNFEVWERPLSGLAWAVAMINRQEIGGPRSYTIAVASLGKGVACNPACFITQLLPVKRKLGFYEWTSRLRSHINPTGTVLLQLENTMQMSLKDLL
Rango dissoc inh – inhibitors of RanGTP-induced Rango-importin beta complex dissociation. O95149+P62826. Biochemical FRET Rango-importin beta, RanGTP-induced dissociation. Potency, µM (doses to about 46.1 µM), inactives show top-dose activity change, negative = inhibition. 340,000 compounds, 0.071% hits; active means falling FRET ratio curve, often poorly fitted, with flat reads before Ran was added; inconclusive means other falling curves, or compound fluorescence or quenching; inactive means flat or rising ratio curve;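 note: potency is the fitted concentration of half-maximal effect; % of control where 0% means no effect; nearly all actives have a fitted effect of over 45% in size; -100% = wells without RanGTP and RCC1; the record marks most hits as doubtful in a second field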
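FRET read at 45 min, room temperature: inhibitors block the CFP/YFP signal rise when RanGTP (0.6 uM Ran, 2 mM GTP, 0.2 uM RCC1) frees Rango (0.1 uM) from importin beta (0.25 uM). Pre-read after 5 min compound exposure flags interference.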
miR-21 reporter – raises the signal of a miR-21 reporter; 340,000 tested, under 10 active; HeLa miR-21 FLuc reporter, luciferase, 48 h; Potency, µM (series often up to 38.3 µM), without a hit: top-dose reporter change, positive = more light; active = well fitted rising curve with a large enough effect; inconclusive = small, poorly fitted or top-dose-only effect; inactive = no such curve, though single readings can be large or run the other way;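 note: % of control where 0% means no effect; miR-21 action dims this reporter so a rising signal means less miR-21 action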
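Using DMEM plus 10% FBS, HeLa miR-21-FLuc cells are incubated with test compounds (final up to about 40uM) for 48 hours; firefly luciferase signal is then imaged following reagent-mediated lysis.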
Rango-impB inh – prevents formation of the Rango-importin beta complex; Rango CFP/YFP FRET sensor + importin beta, 45 min; Potency, µM (top dose mostly 92.2 µM), inactives show at the highest dose inhibition of complex formation; 340,000 compounds, 0.031% hits; active = rising FRET ratio curve, often small or poorly fitted; inconclusive = mostly compound fluorescence or quenching in the first reads; inactive = flat curves in all reads;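 note: potency is the fitted concentration of half-maximal effect; 0% = DMSO wells and 100% = buffer wells lacking importin beta; nearly all actives have a fitted effect of over 15% in size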
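Inhibition scored from the CFP 486 nm/YFP 530 nm FRET ratio 45 min after adding 0.125 microM importin beta to 50 nM Rango biosensor preincubated 5 min with compound (room temperature, PBS with DTT, Tween-20, BSA). No-importin wells as positive control.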
Numbers without * were called inactive; ? = inconclusive; nt = not tested or not shown; [ ] = another dose, or the depositor's remark. Some of the compounds tested, so the mix of outcomes need not match the whole.

Start of the data: the first five compounds (preview)
Second line of a record – GLA inh pH 4.5	Rango dissoc inh	miR-21 reporter	Rango-impB inh
- CC(C)NS(=O)(=O)c1ccc(NC(=O)C(C)OC(=O)CCCOc2ccccc2)cc1 (stereo not given)
→ nt	-8%	nt	0.4%
- O=C(c1ccc(-c2cccc([N+](=O)[O-])c2)o1)N1CCN(c2ccc([N+](=O)[O-])cc2)CC1
→ nt	-3%	nt	-1.5%
- CCCCOC(=O)Nc1cc(OC)c(Cl)cc1OC
→ -3	-12%	-7%	-0.5%
- CC(NC(=O)Cc1ccccc1)c1ccccc1 (stereo not given)
→ nt	-12%	-8%	-0.2%
- O=C(Nc1ccc(C(=O)N2CCOCC2)cc1)Nc1cccc(Cl)c1
→ -5	3%	-39%	0.5%

All compounds of this part, previewed entries included:
Second line of a record – GLA inh pH 4.5	Rango dissoc inh	miR-21 reporter	Rango-impB inh
- CC(C)NS(=O)(=O)c1ccc(NC(=O)C(C)OC(=O)CCCOc2ccccc2)cc1 (stereo not given)
→ nt	-8%	nt	0.4%
- O=C(c1ccc(-c2cccc([N+](=O)[O-])c2)o1)N1CCN(c2ccc([N+](=O)[O-])cc2)CC1
→ nt	-3%	nt	-1.5%
- CCCCOC(=O)Nc1cc(OC)c(Cl)cc1OC
→ -3	-12%	-7%	-0.5%
- CC(NC(=O)Cc1ccccc1)c1ccccc1 (stereo not given)
→ nt	-12%	-8%	-0.2%
- O=C(Nc1ccc(C(=O)N2CCOCC2)cc1)Nc1cccc(Cl)c1
→ -5	3%	-39%	0.5%
- Cc1ccc(NC(=O)CSCC(=O)Nc2cc(Cl)ccc2N2CCOCC2)cc1
→ nt	-2%	nt	0.1%
- O=C(Cn1nc(-c2ccccc2F)ccc1=O)NCc1ccc2c(c1)OCO2
→ -3	-1%	2%	-1.4%
- Cc1ccc(S(=O)(=O)N2CCOCC2)cc1NC(=O)COC(=O)Cc1ccc(Cl)cc1
→ nt	-5%	nt	-2.7%
- COc1ccc(Cl)cc1C(=O)Nc1ccc(NC(C)=O)cc1
→ 7	2%	-19%	0.3%
- Cc1cccc(NC(=O)CCCN2C(=O)C(c3ccccc3)Oc3cccnc32)c1C (stereo not given)
→ nt	0%	-1%	1.0%
- COc1ccc(COC(=O)C2=C(C)NC(=O)NC2c2cc(Br)c(O)c(OC)c2)cc1 (stereo not given)
→ nt	-2%	-23%	-0.5%
- COc1ccc(CNC(=O)c2ccc3c(c2)N(C)C(=O)CS3=O)cc1 (stereo not given)
→ 4	-2%	1%	0.3%
- Cc1nc2ccc(NC(=O)c3ccc(Cl)c(S(=O)(=O)N(C)c4ccccc4)c3)cc2s1
→ -3	12%	?	?
- CCN1CCN(c2cc(C)c3cc(NC(=S)N4CCC5(CC4)OCCO5)ccc3n2)CC1
→ 7[21.1 µM]	-3%	-1%	-2.4%
- O=C(CC(=O)NCc1cccnc1)NCc1cccnc1
→ -1	2%	0%	-0.5%
- O=C(NCC1CCCO1)c1cc2c(s1)CCCC2 (stereo not given)
→ nt	14%	nt	-0.3%
- CCCCOc1ccc(CNC(=O)NS(=O)(=O)c2ccc(OCC)cc2)cc1
→ 3	9%	-2%	-3.5%
- CC(C)CCN1CCN(CCCn2cccn2)CC1CCO (stereo not given)
→ 2	5%	0%	-5.5%
- O=S(=O)(NCC(c1ccco1)N1CCN(c2ccccc2F)CC1)c1ccccc1 (stereo not given)
→ -2	-23%	-2%	-2.4%
- CCCCN(C(=O)Cc1ccc(S(=O)(=O)N2CCOCC2)s1)c1ccccc1
→ nt	3%	nt	?
- N#C/C(=C\c1ccncc1)c1nc2ccccc2o1
→ -2	?	-8%	?
- COc1ccccc1NC(=O)c1cc(S(=O)(=O)N2CCCCCC2)ccc1F
→ nt	-6%	-10%	-1.3%
- CCOC(=O)Cc1csc(SC(C)C(=O)Nc2ccc(NC(C)=O)cc2)n1 (stereo not given)
→ 0	1%	1%	4.6%
- C/C(=N\NC(=S)Nc1c(C)cccc1C)c1ccc(OC(F)F)cc1
→ 0	-4%	1%	-0.2%
- O=C1OC(C(=O)O)Cc2ccccc21 (stereo not given)
→ 0	-26%	-2%	2.3%
- S=C(NC1CC1)N1CCc2ccccc2C1
→ 6	-20%	-8%	-0.2%
- Cc1ccc(/C=N/c2sc3c(c2C#N)CCC3)s1
→ -1	0%	-61%	-2.1%
- Cc1cccn2c(/C=N/OCc3ccc(F)cc3)c(-c3ccc(Cl)cc3)nc12
→ 13	1%	1%	-2.4%
- CSC1=C(C#N)C2(CCCCC2)C(C(=O)Nc2ccccc2)=C(C)N1
→ nt	-9%	nt	-0.2%
- Cc1ccc(S(=O)(=O)Nc2ccc3nc(N)sc3c2)cc1
→ 12	1%	4%	1.5%
- Nc1nonc1-c1noc(N2CCOCC2)n1
→ -16	-8%	-26%	1.2%
- NC(=O)NC(=O)C(c1ccccc1)N1CCN(S(=O)(=O)c2ccc(Br)s2)CC1 (stereo not given)
→ nt	-20%	nt	1.2%
- CC(Cl)C(=O)NNC(=O)CNS(=O)(=O)c1ccccc1 (stereo not given)
→ 3	-9%	-5%	?
- COc1ccc(OC)c(S(=O)(=O)NCCCN2CCCC2=O)c1
→ nt	?	1%	-3.2%
- CCCN1CCN(CCCNC(=O)CN2C(=O)C(CC)Oc3ccccc32)CC1 (stereo not given)
→ nt	-14%	-1%	-0.2%
- CCOC(=O)N1CCC(NS(=O)(=O)c2ccc(NC(C)=O)c(Cl)c2)CC1
→ -4	-3%	13%	-3.1%
- O=C(Nc1ccc(S(=O)(=O)Nc2ccccn2)cc1)c1cccc(Br)c1
→ nt	-7%	0%	-4.2%
- CN(C)C(=S)NC1(C)CCS(=O)(=O)C1 (stereo not given)
→ 1	2%	-7%	-3.3%
- Cc1ccc2nc(C)cc(N3CCOCC3)c2c1
→ 7	-1%	-4%	-1.8%
- Cc1cccc(NC(=O)COc2ccc(/C=C\c3[nH]c(=O)[nH]c(=O)c3[N+](=O)[O-])cc2)c1
→ 5	1%	4%	5.3%
- Cc1ccccc1N1CCN(C(=O)CCN2C(=O)c3ccccc3C2=O)CC1
→ 0	-1%	-12%	-2.7%
- COc1ccc(C(=O)Nc2ccc(NC(=O)c3ccco3)cc2)cc1
→ nt	?	-4%	1.4%
- O=C(NCC1CCCO1)/C(=C/c1ccc(Cl)cc1)NC(=O)c1ccccc1 (stereo not given)
→ 1	19%	-2%	1.1%
- O=C(Nc1cccc(S(=O)(=O)N2CCCCC2)c1)c1ccc2c(=O)n3c(nc2c1)CCCCC3
→ 2	-8%	?	3.2%
- COc1ccc(Cl)cc1S(=O)(=O)N1CCCC(C(=O)N2CCCC2)C1 (stereo not given)
→ nt	3%	2%	-0.2%
- CCN(C(=O)c1cc2ccccc2o1)C12CC3CC(CC(C3)C1)C2
→ -1	nt	2%	nt
- CC(=O)c1ccccc1C(=O)N1CCCC(N2CCN(Cc3ccc4c(c3)OCO4)CC2)C1 (stereo not given)
→ nt	3%	-2%	2.0%
- O=C(NNc1cccc(Cl)n1)Nc1cccc(Cl)c1
→ -1	5%	4%	-1.3%
- Cc1ccc(NC(=O)Nc2ccno2)cc1
→ -5	4%	-9%	1.8%
- COc1ccc(-c2cc(C(F)(F)F)n3ncc(C(=O)NCC4CCCO4)c3n2)cc1 (stereo not given)
→ 5	?	-9%	?
- Cc1cc(C(=O)N/N=C/c2ccc(-c3cccc(Br)c3)o2)n[nH]1
→ 21	-16%	-7%	-0.1%
- COCCNc1nc(-c2ccc(OC)cc2)c(-c2ccc(OC)cc2)s1
→ -10	14%	3%	3.2%
- CCCC(c1nnnn1Cc1cccs1)N1CCN(c2ccc(OC)cc2)CC1 (stereo not given)
→ -10	0%	0%	0.7%
- CCOC(=O)Cc1csc(NC(=O)Nc2ccc(Cl)cc2)n1
→ 2	-1%	18%	1.0%
- CC1CCCCC1NC(=O)C1CCCN(S(=O)(=O)c2ccc(-n3cnnn3)cc2)C1 (stereo not given)
→ nt	10%	-3%	0.9%
- COc1cc2cc(CN(Cc3nnnn3Cc3ccccc3)CC3CCCO3)c(=O)[nH]c2cc1OC (stereo not given)
→ -8	?	-26%	?
- CCc1c(C)nc(N2CCN(c3ccccc3)CC2)[nH]c1=O
→ nt	-4%	-2%	-0.3%
- Cc1ccc(C)c(OCCC(=O)N2CCN(S(=O)(=O)c3ccc([N+](=O)[O-])cc3)CC2)c1
→ nt	7%	nt	-3.0%
- COCC(=O)N[C@@H]1c2cc(OC)c(OC)cc2C[C@H]1OCc1ccccc1
→ nt	12%	nt	-3.0%
- CCOC(=O)c1cc(-c2ccccc2)sc1NC(=O)CC(C)C
→ -6	0%	-1%	0.0%

Laid out differently: 3 of the compounds above.
mol	GLA inh pH 4.5	Rango dissoc inh	miR-21 reporter	Rango-impB inh
CCc1c(C)nc(N2CCN(c3ccccc3)CC2)[nH]c1=O	nt	-4%	-2%	-0.3%
Cc1ccc(C)c(OCCC(=O)N2CCN(S(=O)(=O)c3ccc([N+](=O)[O-])cc3)CC2)c1	nt	7%	nt	-3.0%
COCC(=O)N[C@@H]1c2cc(OC)c(OC)cc2C[C@H]1OCc1ccccc1	nt	12%	nt	-3.0%

The listing continues:
Second line of a record – GLA inh pH 4.5	Rango dissoc inh	miR-21 reporter	Rango-impB inh
- O=C1CC(c2ccccc2)CC(O)=C1C=Nc1ccccc1 (stereo not given)
→ 0	6%	-1%	3.3%
- COc1cccc(-n2c(C)nn(C)c2=O)c1
→ 2	-5%	-9%	0.6%
- CCOc1ccccc1CN1CCC(Oc2cccc(C(=O)NCCOC)c2)CC1
→ nt	-12%	12%	-4.0%
- Cc1ccc(CNC(=O)c2ccc(N3CCCC3=O)cc2)cc1
→ 1	-15%	-31%	-2.3%
- Cc1cnc(C(=O)N2CCN(S(=O)(=O)c3ccc4ccccc4c3)CC2)cn1
→ -7	5%	-7%	1.9%
- Cc1ccc(C(=O)COC(=O)c2ccccc2N2C(=O)C3C4CCC(C4)C3C2=O)cc1C (stereo not given)
→ -5	-2%	-5%	-4.8%
- O=C1CN(C(=O)COC(=O)COc2ccc3c(c2)CCC3)c2ccccc2N1
→ 7	-3%	-4%	-2.0%
- COc1ccc(Br)c(C(=O)NC2CCCC2)c1
→ 5	16%	-1%	1.6%
- COc1ccc(OC)c(-c2csc(NC(=O)CSCC(=O)Nc3cc(C)on3)n2)c1
→ nt	1%	nt	-0.5%
- Cc1cc(NC(=O)c2cc3ncc(Br)cn3n2)no1
→ 0	-6%	-12%	-1.8%
- CC(=O)Nc1ccc(NC(=O)/C=C/c2ccc3c(c2)OCO3)cc1
→ -1	0%	-24%	-4.7%
- O=C(CNC(=O)c1ccccc1F)OC(C(=O)Nc1cc(C(F)(F)F)ccc1Cl)c1ccccc1 (stereo not given)
→ -8	0%	-11%	2.9%
- COc1ccccc1NC1=NCC(=O)N1Cc1ccccc1
→ 3	-1%	-1%	0.6%

Part of the list above in order of heavy-atom count, falling.
Second line of a record – GLA inh pH 4.5	Rango dissoc inh	miR-21 reporter	Rango-impB inh
- Cc1nc2ccc(NC(=O)c3ccc(Cl)c(S(=O)(=O)N(C)c4ccccc4)c3)cc2s1
→ -3	12%	?	?
- COc1ccc(OC)c(-c2csc(NC(=O)CSCC(=O)Nc3cc(C)on3)n2)c1
→ nt	1%	nt	-0.5%
- COCC(=O)N[C@@H]1c2cc(OC)c(OC)cc2C[C@H]1OCc1ccccc1
→ nt	12%	nt	-3.0%
- COc1ccc(OC)c(S(=O)(=O)NCCCN2CCCC2=O)c1
→ nt	?	1%	-3.2%
- CCc1c(C)nc(N2CCN(c3ccccc3)CC2)[nH]c1=O
→ nt	-4%	-2%	-0.3%
- O=C(NNc1cccc(Cl)n1)Nc1cccc(Cl)c1
→ -1	5%	4%	-1.3%
- Nc1nonc1-c1noc(N2CCOCC2)n1
→ -16	-8%	-26%	1.2%

Compound activity deposited in PubChem by National Center for Advancing Translational Sciences (NCATS).
